SARS PLpro yeast = SARS-CoV PLP inhibition in yeast; S. cerevisiae expressing SARS-CoV PLpro, growth rescue; control for the full effect not named in the record; Potency, µM (highest dose often 32.9 µM), without a hit: top-dose activity, positive = growth rescue; 330,000 tested, 0.19% active; active means well fitted rising curve with a large enough effect; inconclusive means small, poorly fitted or top-dose-only effect; inactive means no such curve, though single readings can be large or run the other way; further: 0% is about no effect; nearly all actives have a fitted effect of over 55% in size; growth read by luminescence after 48 h
Active calls of the source: *; & = joins results of further samples. Potency means the concentration at half of the fitted maximal effect. The list is partial; count on the stated rates, not on these rows.

SMILES	SARS PLpro yeast
O=C1NC(Cc2ccccc2)c2nc3ccc(Cl)cc3c(=O)n2-c2ccccc21 (stereo not given)	0.7%
CCn1c(COc2ccccc2C)nnc1SCc1nc2ccccc2c(=O)[nH]1	-2.9%
COc1ccc(OC)c2sc(N(CCCN(C)C)C(=O)c3ccc(S(=O)(=O)N4CCc5ccccc5C4)cc3)nc12	2.3%
CCOc1ccc(NC(=S)N(CC)Cc2ccccc2)cc1	7.7%
Cc1ccc(C[C@@H](NS(=O)(=O)c2ccc(C(=O)O)cc2)C(=O)O)cc1	6.3%
NC(=O)c1ccccc1-c1noc(-c2ccccc2F)n1	-1.4%
CC(C)Cn1c(N)c(C(=O)CSc2nc3ccccc3c(=O)n2CCCN2CCOCC2)c(=O)n(C)c1=O	-3.4%
O=C(O)c1ccccc1-c1noc(-c2ccccc2F)n1	-0.1%
CCOc1ccc(NC(=O)c2cccc(-n3cccc3)c2)cc1S(=O)(=O)N1CCOCC1	4.3%
CC(CCc1ccccc1)NC(=O)CCCCCNc1nc(=S)[nH]c2ccccc12 (stereo not given)	-2.7%
Cc1cc2c(s1)c(C=O)c(C(=O)NCc1ccccc1F)n2C	6.4%
CCN(C(C)=O)c1cccc(-c2ccnc3c(C#N)cnn23)c1	6.5%
COc1ccc2c(c1)/C(=N/N1C(=O)c3ccccc3C1=O)C(=O)N2	4.3%
CCOC(=O)CCCCC(=O)c1[nH]c(=O)[nH]c1CSc1nnc2c3cc(Br)ccc3n(C)c2n1	-1.0%
Cc1csc(NC(=O)c2ccc(C)c(S(=O)(=O)N3CCOCC3)c2)n1	0.9%
O=C(COc1cccc2cccnc12)NNC(=S)Nc1ccccc1	-0.1%
COc1ccc(S(=O)(=O)N2CCN(S(=O)(=O)c3c(F)cccc3F)CC2)cc1	1.5%
COc1cccc2cc(-c3ccnc(=S)[nH]3)oc12	4.3%
Cc1ccc(CNC(=O)CCCCCNc2nc(=S)[nH]c3ccccc23)cc1	0.6%
O=C(NC1CC2CCCC(C1)N2Cc1cccs1)c1ccc([N+](=O)[O-])cc1 (stereo not given)	0.6%
CCNc1nc(Oc2ccc(C(=O)OCC)cc2)nc(N2CCOCC2)n1	-2.3%
CC1(C)O[C@@H]2[C@H](O1)[C@@H](COS(=O)(=O)O)O[C@H]2n1cnc2c(N)ncnc21	-11.1%
CCc1ccc(NC(=O)CN2C(=O)C(=O)N(Cc3ccccc3)C2=O)cc1	-1.5%
OCCNCCNCc1ccc(-c2ccccc2)cc1	-6.1%
NC(=O)C1CCN(C(=O)c2ccc3c(=O)n(Cc4ccco4)c(SCC(=O)c4ccc(F)cc4)nc3c2)CC1	0.6%
SMILES	SARS PLpro yeast
COc1cccc(/C=C/C(=O)OCC(=O)Nc2ccc(Cl)cn2)c1	-1.5%
Fc1cccc(CNc2ncnc3ccc(-c4cccc(Cl)c4)cc23)c1	-6.8%
CC(C)[C@@]1(c2ccc(Cl)cc2)ON(c2ccccc2C(F)(F)F)C1=O	-11.1%
CC1CCN(C(=O)c2cc(N3C(=O)C4C5CCC(C5)C4C3=O)ccc2Cl)CC1 (stereo not given)	1.3%
CN1CC[C@]2(c3cccc(O)c3)Cc3nc4ccccc4cc3C[C@H]2C1	-3.6%
Cc1cc(C)n2nc(SCC(=O)N(C)c3c(N)n(Cc4ccccc4)c(=O)[nH]c3=O)nc2n1	-1.6%
O=C(Cn1c(N2CCN(C/C=C/c3ccccc3)CC2)nc2ccccc21)c1ccccc1	-4.1%
Cc1ccc(C[C@H](C(=O)O)N2C(=O)c3ccc(C(=O)O)cc3C2=O)c(C)c1	2.4%
Cn1ncc2c(NCc3cccc(C(F)(F)F)c3)c(C(=O)O)cnc21	0.0%
O=C(NCc1cccs1)C1CCCN1C(=O)Nc1ccc(Cl)cc1 (stereo not given)	0.3%
CCCCNC(=O)Oc1cc(CCl)on1	2.2%
O=C(CC1Nc2c3ccccc3nc(=S)n2C1=O)NC1CCCCC1 (stereo not given)	-0.5%
Cc1ccc2nc3n(c(=O)c2c1)-c1ccccc1C(=O)NC3Cc1ccccc1 (stereo not given)	0.6%
COc1cc(OC)c(C(=O)NCC(c2cccs2)N(C)C)cc1OC (stereo not given)	0.1%
O=C(CNCC1CCCCC1)Nc1ccc(N2CCCCC2)cc1	0.4%
COc1ccc(/C=C2\CCCC(C(=O)C(F)(F)F)=C2O)cc1OC	-5.2%
CC1(C)Cc2c(sc3c2c(N)nc(=S)n3Cc2ccccc2)CO1	-0.7%
CC(=O)SCC(Cc1ccccc1)C(=O)NCC(=O)OCc1ccccc1 (stereo not given)	-19.4%
O=C(CCNC(=O)c1ccccc1)N=Nc1c(O)[nH]c2ccccc12	1.9%
COC(=O)N1CCN(c2ccc(C)c(C)c2)CC1	1.1%
O=C(O)c1ccc2c(c1)C(=O)N([C@H](Cc1ccc([N+](=O)[O-])cc1)C(=O)O)C2=O	3.2%
Cn1ccc2cc(-c3ccc4ncnc(NCc5ccc6c(c5)OCO6)c4c3)ccc21	2.4%
O=C(c1cc2c(=O)n3ccccc3nc2s1)N1CCc2ccccc2C1	-0.7%
C#CCOCCOCCOCCNc1nc(N2CCN(C(=O)CCCCCCCCCCNC(=O)[C@H]([C@@H](C)CC)n3cc(CCCCCN)nn3)CC2)nc(N2CCN(C(=O)CCCCCCCCCCNC(=O)[C@@H]([C@H](C)CC)n3cc(CCCCCN)nn3)CC2)n1	2.1%
CCc1nc(N=C(N)N)nc2ccccc12	3.3%

In another format: entries from further up.
molecule,SARS PLpro yeast
CCCCNC(=O)Oc1cc(CCl)on1,2.2%
O=C(CC1Nc2c3ccccc3nc(=S)n2C1=O)NC1CCCCC1 (stereo not given),-0.5%
Cc1ccc2nc3n(c(=O)c2c1)-c1ccccc1C(=O)NC3Cc1ccccc1 (stereo not given),0.6%
COc1cc(OC)c(C(=O)NCC(c2cccs2)N(C)C)cc1OC (stereo not given),0.1%
O=C(CNCC1CCCCC1)Nc1ccc(N2CCCCC2)cc1,0.4%
COc1ccc(/C=C2\CCCC(C(=O)C(F)(F)F)=C2O)cc1OC,-5.2%
CC1(C)Cc2c(sc3c2c(N)nc(=S)n3Cc2ccccc2)CO1,-0.7%
CC(=O)SCC(Cc1ccccc1)C(=O)NCC(=O)OCc1ccccc1 (stereo not given),-19.4%
O=C(CCNC(=O)c1ccccc1)N=Nc1c(O)[nH]c2ccccc12,1.9%
COC(=O)N1CCN(c2ccc(C)c(C)c2)CC1,1.1%
O=C(O)c1ccc2c(c1)C(=O)N([C@H](Cc1ccc([N+](=O)[O-])cc1)C(=O)O)C2=O,3.2%
Cn1ccc2cc(-c3ccc4ncnc(NCc5ccc6c(c5)OCO6)c4c3)ccc21,2.4%
O=C(c1cc2c(=O)n3ccccc3nc2s1)N1CCc2ccccc2C1,-0.7%
C#CCOCCOCCOCCNc1nc(N2CCN(C(=O)CCCCCCCCCCNC(=O)[C@H]([C@@H](C)CC)n3cc(CCCCCN)nn3)CC2)nc(N2CCN(C(=O)CCCCCCCCCCNC(=O)[C@@H]([C@H](C)CC)n3cc(CCCCCN)nn3)CC2)n1,2.1%
CCc1nc(N=C(N)N)nc2ccccc12,3.3%

(list continues)
SMILES	SARS PLpro yeast
O=S(=O)(c1ccc2c(c1)OCCO2)C1CCC(O)CC1 (stereo not given)	3.4%&-0.1%
COc1cccc(N/C(N)=N/c2nc(CSc3ccccn3)cc(=O)[nH]2)c1	-2.6%
COc1ccc(/C=C2\C(=O)ON=C2c2cccc([N+](=O)[O-])c2)cc1	-1.0%
CCc1ccc(N2C(=O)CC(c3ccc(F)cc3)C3=C2COC3=O)cc1 (stereo not given)	5.5%
O=C([O-])c1cc(-c2ccccc2)cc(-c2ccccc2)[n+]1Cc1ccccc1	-0.6%
Cc1ccc2cccc(OCC(=O)c3cc(C)n(Cc4ccco4)c3C)c2n1	1.6%
Cc1ccc(C2c3c(C)nn(-c4ccc([N+](=O)[O-])cc4)c3N=C3C(=O)Nc4ccccc4N32)cc1 (stereo not given)	0.2%
O=c1c2ccccc2c(C=NC2CCN(Cc3ccccc3)CC2)c(O)n1Cc1ccc2c(c1)OCO2	0.5%
Cn1ccnc1SCC(=O)Nc1ccc2c(c1)OC(F)(F)O2	-0.3%
COc1ccc2c(c1)c1nc3n(c(=O)c1n2CC(=O)Nc1cc(C)[nH]n1)CCS3	0.0%
O=C(CSc1nc2scc(-c3ccccc3)c2c(=O)[nH]1)NC1CCCCC1	0.6%
Oc1ccc2c3c1O[C@H]1c4[nH]c5ccccc5c4C[C@@]4(O)C(C2)N(CC2CC2)CC[C@]314	0.8%
CN(C)c1ccc(C(CNC(=O)c2ccc(-c3ccccc3)cc2)N2CCOCC2)cc1 (stereo not given)	0.3%
Cc1ccc2c(c1)N/C(=C(\C=C(/Cl)[N+](=O)[O-])[N+](=O)[O-])N2	-11.5%
CCOc1ccccc1NC(=O)Cn1[nH]c(=O)c2ccccc2c1=O	-0.2%
CC(C)C(NC(N)=O)C(=O)NC1CCCCC1 (stereo not given)	3.5%
O=C(O)c1cn(Cc2cccnc2)c(=O)c2ccccc12	-5.3%
CC(=O)c1sc(-c2ccccn2)nc1C	-4.3%
CN1CCN(C(c2cc3cc4c(cc3[nH]c2=O)OCCO4)c2nnnn2C2CCCC2)CC1 (stereo not given)	-0.4%
COc1ccc(C)cc1NC(=O)C(c1ccccc1)N1CCNC(=O)C1 (stereo not given)	0.0%
C[C@H]1COc2c(C3(N)CC3)c(F)cc3c(=O)c(C(=O)O)cn1c23	1.8%
Cc1c(NC(=O)CC2NC(=O)NC2=O)c(=O)n(-c2ccccc2)n1C (stereo not given)	1.7%
CCCn1c(N/N=C(C)\C=C\c2ccccc2)nc2c1c(=O)[nH]c(=O)n2C	0.0%
CN1CCN(c2ccc(-c3cc(O)c4ncccc4c3)cc2)CC1	-9.1%
CCOC(=O)c1nn(-c2ccccc2)c(=O)c2c(N)sc(C)c12	-6.1%
SMILES	SARS PLpro yeast
CN(C)S(=O)(=O)c1ccc(NC(=S)NC(=O)c2ccc(Br)o2)cc1	0.3%
S=C(NCCc1ccccc1)N/N=C/C1CCCCC1	28.8%
COc1ccc(NS(=O)(=O)c2ccc(NN=Cc3ccc(C(=O)O)cc3)c([N+](=O)[O-])c2)cc1	1.4%
O=C(O)c1ccc2c(c1)C(=O)N([C@H](Cc1ccc(O)c(O)c1)C(=O)O)C2=O	-0.7%
Cc1c(Cl)cn2c(=O)cc(CN(C)Cc3nc4ccccc4c(=O)[nH]3)nc2c1Cl	0.0%
CC(C)CC1NC(=O)c2ccc(Cl)cc2-n2c1nc1cc(F)ccc1c2=O (stereo not given)	-9.1%
COCCn1c(SCC(=O)Nc2ccc(OC)cc2)nc2c(oc3ccccc32)c1=O	-0.1%
O=C(/C=C/c1cccc([N+](=O)[O-])c1)NC(=S)Nc1ccccc1C(=O)O	0.9%
O=C1NC(Cc2ccc(O)cc2)c2nc3ccccc3c(=O)n2-c2ccccc21 (stereo not given)	0.4%
Cc1cc(C)c2sc(N(CCCN(C)C)C(=O)c3ccc(S(=O)(=O)N4CCc5ccccc5C4)cc3)nc2c1	1.5%
CC(=O)c1sc(NC(=O)COc2c(C)cc(Cl)cc2C)nc1C	-0.8%
COc1ccc(-c2cc(C(=O)OCC(=O)NC(C)(C)C)c3ccccc3n2)cc1	-2.6%
CC(Sc1ccsc1[N+](=O)[O-])C(=O)NCc1ccccc1 (stereo not given)	0.5%
CC(=O)c1ccc(N2CCN(C(=O)Nc3ccc(F)cc3)CC2)cc1	-9.5%
Cc1ccc(NC(=O)COC(=O)CC2CCCC2)cc1Cl	-1.2%
CC(=O)N(Cc1ccco1)Cc1cc2cccc(C)c2n2nnnc12	-1.2%
Cc1cc2c(s1)c1c(C)nn(Cc3ccc(F)cc3)c(=O)c1n2C	4.0%
C#CCOCCOCCOCCNc1nc(N2CCN(C(=O)CCCCCCCCCCNC(=O)[C@H](CO)n3cc(CCCSC)nn3)CC2)nc(N2CCN(C(=O)CCCCCCCCCCNC(=O)[C@H](CCCCN)n3cc(C[C@@H](C)CC)nn3)CC2)n1	-1.8%
Nc1nc(Cl)cc(NCCc2ccccc2)n1	4.4%
Cc1ccc(C(=O)Nc2ccc(C(=O)N/N=C/c3ccncc3)cc2)cc1	1.4%
O=C1NC(Cc2ccc(O)cc2)c2nc3ccc(Cl)cc3c(=O)n2-c2cc(Cl)ccc21 (stereo not given)	-3.1%
Cc1cc(S(=O)(=O)Nc2ccc(C(=O)NCC3CCCO3)cc2)ccc1F (stereo not given)	1.0%
CC(OC(=O)/C(C#N)=C/c1ccc(N(C)C)cc1)C(=O)NCc1ccco1 (stereo not given)	-4.6%
COc1cc2nc(Cl)nc(N3CCN(C)CC3)c2cc1OC	-0.5%
Cc1nnc(NC(=O)c2cc(-c3ccco3)nc3ccccc23)s1	0.9%
SMILES	SARS PLpro yeast
CCn1cc(C(=O)Nc2cccc(C)c2)c(=O)c2ccc(C)nc21	4.7%
COc1ccc(-n2c(SCC(=O)Nc3ncc(Cl)cc3Cl)nc3ccccc32)cc1	-1.4%
CC1(C(=O)Nc2cccc(C(F)(F)F)c2)CO1 (stereo not given)	-0.2%
CC/C(O)=C1\C(=O)CCCC1=NCCc1nc2ccccc2[nH]1	2.0%
O=C(O)CC12CC3CC(C1)CC(n1ncc(NCc4ccc5c(c4)OCO5)c(Cl)c1=O)(C3)C2	8.9%
O=C(NCc1ccccc1Br)c1cccc2c1C(=O)c1ccc(N3CCOCC3)cc1S2(=O)=O	0.9%
CC(=O)c1ccc(N2CCN(C(=O)Cn3c(=S)[nH]c4ncccc4c3=O)CC2)cc1	-0.9%
CCOC1=C/C(=C/c2c(N)n3oc(C)cc3nc2=O)C=CC1=O	-5.4%
O=C1c2cccnc2C(Nc2ccc(Br)cc2Br)N1Cc1cccs1 (stereo not given)	-0.1%
CN(C(=O)CSc1nnc(-c2ccncc2)n1Cc1ccccc1)C1CCS(=O)(=O)C1 (stereo not given)	-0.2%
